Mtb MbtI inh: MbtI salicylate synthase inhibition; P9WFX0; purified MbtI enzyme, fluorescence intensity read-out; inhibition, %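 (about 17 µg/mL by stock and volumes)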; 100,000 compounds, 0.89% hits; AID 493033;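 active means above 50% in both replicates, above 80% if mildly self-fluorescent; inactive means the rest, strongly fluorescent compounds included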;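 further: 0% = mean of negative and 100% = mean of positive controls; one replicate is shown; some compounds called inactive have numbers as strong as hits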
Mtb MenB inh: Mtb MenB enzyme inhibition; P9WNP5; MenB enzyme assay, absorbance read-out; some hits fall short of the stated cut; inhibition, %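 (about 12 µg/mL by stock and volumes)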; 100,000 compounds, 0.43% hits;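 active means mean of two replicates above 30%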;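 further: 0% = no compound and 100% = wells with inactive enzyme; the first replicate is given; strong numbers were not always called active; inactives centre near -10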
Target sequence (P9WNP5 whole entry, looked up): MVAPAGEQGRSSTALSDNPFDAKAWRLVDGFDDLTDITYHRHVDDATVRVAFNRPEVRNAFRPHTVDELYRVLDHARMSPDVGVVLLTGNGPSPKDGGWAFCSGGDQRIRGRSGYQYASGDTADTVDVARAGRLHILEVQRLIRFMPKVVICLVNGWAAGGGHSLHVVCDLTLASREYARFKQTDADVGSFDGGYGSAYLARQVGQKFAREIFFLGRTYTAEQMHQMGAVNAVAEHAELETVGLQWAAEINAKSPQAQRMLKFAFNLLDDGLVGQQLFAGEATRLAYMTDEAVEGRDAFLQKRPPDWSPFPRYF
Polio RdRp inh: inhibitors of poliovirus RNA polymerase binding and polymerization | % elongation, % (compound at 16.7 µg/mL) | poliovirus polymerase elongation, fluorescence polarization; stronger effect = lower value | AID 588519 | P03300 | 150,000 compounds, 0.66% hits; in the data active means % elongation below about 90%; further: some results filed as inactive read as strong as hits
Target sequence (P03300 1749-2209 limits assumed): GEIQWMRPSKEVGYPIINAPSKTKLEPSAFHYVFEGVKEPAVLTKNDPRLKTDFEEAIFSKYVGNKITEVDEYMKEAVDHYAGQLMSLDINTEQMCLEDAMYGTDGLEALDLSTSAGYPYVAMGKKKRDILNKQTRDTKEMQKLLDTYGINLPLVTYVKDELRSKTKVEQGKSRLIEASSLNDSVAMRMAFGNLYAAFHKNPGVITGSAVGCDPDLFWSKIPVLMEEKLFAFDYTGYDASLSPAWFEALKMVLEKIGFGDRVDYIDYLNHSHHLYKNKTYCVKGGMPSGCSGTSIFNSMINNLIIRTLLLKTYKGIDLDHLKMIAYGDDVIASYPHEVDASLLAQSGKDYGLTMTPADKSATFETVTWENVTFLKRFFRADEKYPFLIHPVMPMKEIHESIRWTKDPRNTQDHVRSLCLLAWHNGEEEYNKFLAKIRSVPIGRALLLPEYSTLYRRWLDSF
Polio RdRp inh intensity: also measured in Polio RdRp inh; calls as there; % elongation; measured here: total intensity read-out; formula for this scale not given here;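 total fluorescence in place of polarization; lower means less elongation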
The depositor's hits bear a star; i = inactive; / = not tested or not shown.

SMILES	Mtb MbtI inh	Mtb MenB inh	Polio RdRp inh	Polio RdRp inh intensity
O=C(CCNS(=O)(=O)c1ccccc1)NC12CC3CC(CC(C3)C1)C2	8	-1	105	110
Cc1oc(-c2cc(Cl)ccc2Cl)cc1C(=O)NC(C)C	-6	7	102	100
CCCn1c(N)c(C(=O)CN2CCCCC2)c(=O)[nH]c1=O	10	-11	101	112
O=C(CN1CCN(Cc2ccccc2)CC1)NC(=O)NCc1ccco1	-19	-11	100	95
CC(C)(C)NC(=O)C[n+]1cccc(/C=N/O)c1	7	-28	103	109
CCOC(=O)C1CCCN(C(=O)c2ccccc2OCc2ccccc2)C1 (stereo unspecified)	-15	/	105	108
O=C(CCCCl)N1CCOCC1	-4	/	101	96
COc1ccc(N=c2oc3c(C)ncc(CO)c3cc2C(=O)Nc2ccc3c(c2)OCO3)cc1	12	-8	102	102
O=C(Nc1ccc(Cl)c(Cl)c1)N(CCCN1CCOCC1)Cc1cccnc1	-1	-6	101	102
C/C(=C\c1ccccc1)CN1CCC(C(N)=O)CC1	-14	-13	99	104
NC(=O)CSc1nc2ccccc2c(=O)n1Cc1ccc(Cl)cc1	5	-6	95	103
CC(C)(C)OC(=O)Cn1nc(C(=O)O)c2ccccc2c1=O	-6	-6	102	107
COc1ccc(C)cc1NC(=O)CSc1nnc(Cn2nnc3ccccc32)n1C	-13	-9	101	104
COc1ccc(/C=C2\N=C(c3ccccc3)N(c3nc4ccc(C(=O)O)cc4s3)C2=O)cc1	/	-29	94	95
O=C(O)c1nn(Cc2ccccc2)c(=O)c2ccccc12	7	16	103	103
Cc1ccc(P(=S)(c2ccc(C)o2)N2CCOCC2)o1	8	1	105	112
O=C(CCc1nc(-c2ccccc2F)no1)NCCN1CCOCC1	-6	-21	102	106
COc1cccc(C2CC(c3cccs3)=NN2C(=O)CN2CCOCC2)c1OC (stereo unspecified)	-9	-24	107	104
Cc1ccn2cc(CCNS(=O)(=O)c3ccc(Cl)s3)nc2c1	-11	-4	105	105
CCC(C(=O)OCn1nnc2ccccc2c1=O)c1ccccc1 (stereo unspecified)	-2	-23	104	106

Random excerpt: 5 compounds from above
SMILES	Mtb MbtI inh	Mtb MenB inh	Polio RdRp inh	Polio RdRp inh intensity
C/C(=C\c1ccccc1)CN1CCC(C(N)=O)CC1	-14	-13	99	104
COc1cccc(C2CC(c3cccs3)=NN2C(=O)CN2CCOCC2)c1OC (stereo unspecified)	-9	-24	107	104
O=C(CCCCl)N1CCOCC1	-4	/	101	96
COc1ccc(/C=C2\N=C(c3ccccc3)N(c3nc4ccc(C(=O)O)cc4s3)C2=O)cc1	/	-29	94	95
O=C(CCc1nc(-c2ccccc2F)no1)NCCN1CCOCC1	-6	-21	102	106

(more compounds)
SMILES	Mtb MbtI inh	Mtb MenB inh	Polio RdRp inh	Polio RdRp inh intensity
C=CCc1c(C)nc(SC(C)C)[nH]c1=O	30	3	101	99
COc1ccccc1C(=O)Nc1ccccc1N1CCN(C)CC1	-5	-16	102	102
O=C(c1ccc(Nc2nc3ccccc3n3nnnc23)cc1)N1CCOCC1	5	-1	102	102
CCn1c(COc2ccc(C)cc2)nnc1SCC(=O)N1CCCc2ccccc21	1	23	99	101
CCc1ccc(OC(=O)COc2ccc(Br)c(C)c2)cc1	/	1	101	96
C=CC(N)CCC(=O)O (stereo unspecified)	1	-4	100	100
O=C(O)CC1(CC(=O)Nc2cc3ccccc3cn2)CCCCC1	100	-27	97	92
COC(=O)C1Sc2[nH]c(=O)sc2C(c2ccc(OC)cc2)C1C(=O)OC (stereo unspecified)	39	-9	93	94
CCn1c(=O)c(C(=O)CN2CCc3ccccc32)c(N)n(Cc2ccccc2)c1=O	-32	-24	97	100
CN(C)c1cccc(N(C)C)c1CNC(=O)c1ccccc1F	-5	-9	95	101
COc1ccc2c(=O)c(NC(=O)NCCCN3CCCC3=O)c[nH]c2c1	90	-18	101	102
CC1=C(C(=O)NC(C)C)C2(CCCCC2)OC1=O	1	-11	102	104
CCOC(=O)C1=C(CSc2nnc3ccccn23)NC(=O)NC1c1cccs1 (stereo unspecified)	1	3	/	/
CCOC(=O)c1cc2occc2n1CC(=O)N1CCCCC1	12	-75	101	104
CCOC(=O)CC1NC2CCCCC2NC1=O (stereo unspecified)	-2	3	103	103
C=CCN1C(=O)NC(C)(C)C1=O	-14	8	106	112
O=C(COC(=O)C1c2ccccc2Oc2ccccc21)NC1CC1	-7	/	105	109
COc1ccc(NC(=O)CSc2nnc(C)n3c2cc2sccc23)cc1	-9	2	100	106
CCn1c(SCCOc2ccccc2)nc2ccccc21	-4	-24	105	99
Cc1ccc(NS(=O)(=O)c2ccc3oc(=O)c4ncn(C)c4c3c2)cc1	4	-5	101	102
CCOc1ccc(CN2C(=O)C(NC(C)=O)c3ccccc32)cc1 (stereo unspecified)	-1	9	101	102
COc1ccc(/C=N/NC(=O)c2c(-c3ccccc3)noc2C)c(O)c1	-6	-22	102	102
CC1CCN(S(=O)(=O)c2cn(C)c(=O)n(C)c2=O)CC1	-4	-7	103	108
Cc1ccc(N2C(=O)CC(SCC(=O)Nc3ccccc3)C2=O)cc1 (stereo unspecified)	26	5	103	101
CNC(=O)CCCc1nnc2n(CCC(C)C)c(=O)c3sccc3n12	2	16	101	102
CC1N(C)c2cc(NC(=O)c3cccs3)ccc2C1(C)C (stereo unspecified)	-6	/	101	106
COc1ccccc1-c1nnc(C2CCN(S(=O)(=O)c3ccc(C)cc3)CC2)o1	2	-7	100	101
O=S(=O)(NCC(c1ccccc1)N1CCOCC1)c1ccccc1 (stereo unspecified)	-4	-4	104	102
CN(C)S(=O)(=O)c1ccc(SCC(=O)N(CC2CCCO2)C2CCS(=O)(=O)C2)nc1 (stereo unspecified)	-1	-10	105	105
CCOC(=O)[C@@H]1Nc2c(ccc(C(=O)O)c2C)[C@@H]2C=CC[C@H]12	50	-20	99	102
CC1(C)C2CC=C(/C=C(\C#N)c3nc4ccccc4[nH]3)C1C2 (stereo unspecified)	-17	-16	118	157
S=C(c1cccc(OCc2ccccc2)c1)N1CCCCC1	73*	-34	94	93
CCCCn1nc(C(=O)NC2CCCCCC2)c2ccccc2c1=O	4	16	104	100
CN1CCN(C(=O)CC23CC4CC(CC(Br)(C4)C2)C3)CC1	0	/	101	106
O=C1CCCC/C1=C/Nc1ccccc1C(=O)O	i	-31	104	109
CCCn1c(N)c(C(=O)CSc2nc3ccccc3n2CCC#N)c(=O)n(C)c1=O	0	-19	110	125
N/C(CCCN1CCCCC1)=N\O	-2	25	103	103
Cc1ccc(CNC(=O)Cn2ncc3c(=O)oc4ccc(C)cc4c32)cc1	-6	-13	101	104
Cc1ccc(NC(=O)COC(=O)c2ccccc2)cc1F	-11	-12	106	108
Cn1c(CCCNC(=O)C2CCCCC2)nc2ccccc21	-8	-9	103	104
CCc1nc2ccc(C(=O)NCCN3CCN(c4cccc(Cl)c4)CC3)cc2nc1CC	-21	-106	99	105
Cc1nc2c(-c3ccc(F)cc3)c(C)nn2c(C)c1CCC(=O)N(C)c1ccccc1	-7	-7	102	107
O=C(O)C(C(=O)O)C1c2ccccc2Oc2ccccc21	5	-19	102	94
CCCn1c(N)c(C(=O)CSc2nc3ccccc3s2)c(=O)[nH]c1=O	-4	-23	104	105
O=C(Nn1cnnc1)c1ccccc1	/	-8	95	96
O=C(c1ccccc1)N1CCN(C(=O)c2ccc(OCC3CCCO3)cc2)CC1 (stereo unspecified)	115	0	104	106
O=c1c2c3c(sc2nc2n1CCC2)CCC3	-3	1	104	103
CCOC(=O)Nc1noc2ccccc12	-1	3	104	105
CC1=C(C#N)C(=O)N(CCc2ccccc2)C(=O)/C1=C\c1ccc(-c2cccc(Cl)c2)o1	6	7	103	102
CCO/C=N/c1c(C(=O)OCC)c2nc3ccccc3nc2n1Cc1ccccc1	-16	-30	108	96
O=C(CCc1n[nH]c(=O)[nH]c1=O)N/N=C/c1ccccc1	13	11	103	101
CC1=C(C(=O)c2ccccc2)C(c2ccc(N3CCOCC3)cc2)NC(=O)N1 (stereo unspecified)	4	-91	114	124
COc1ccc(/C=N/OCC(=O)Nc2ccccc2OC)cc1	2	14	100	96
COc1ccc(C)cc1NC(=O)COCc1cc(-c2ccc3c(c2)OCO3)on1	86	-15	101	104
Cc1ccc2nsnc2c1S(=O)(=O)NC12CC3CC(CC(C3)C1)C2	0	1	101	100
O=C(CN1CCOCC1)NCC1COc2ccccc2O1 (stereo unspecified)	0	2	98	101
COc1ccc2c(=O)c(-c3ccccc3C)c(C(F)(F)F)oc2c1	-6	-19	104	107
O=C(O)C1CCCCN1S(=O)(=O)c1ccccc1Cl (stereo unspecified)	-22	3	104	105
O=c1[nH]c2ccccc2nc1/C=C(\O)c1ccc(Cl)cc1	-18	-11	107	112
CCN1C(=O)C2C3C=CC(C3=C3C4CC5CC(C4)CC3C5)C2C1=O (stereo unspecified)	1	-9	98	103
The listing continues.
SMILES	Mtb MbtI inh	Mtb MenB inh	Polio RdRp inh	Polio RdRp inh intensity
O=C(C1CCCN1S(=O)(=O)c1ccc(Cl)cc1)N1N=C2/C(=C/c3cccs3)CCCC2C1c1cccs1 (stereo unspecified)	16	1	100	102
CC(C)N1CCC2(CC1)C(C#N)=C(N)NC(S)=C2C#N	/	-20	124	149
Cc1ccc2nc(COC(=O)c3c(-c4ccccc4)noc3C)cc(=O)n2c1	4	5	102	98
CCOC(=O)c1oc2ccc3c(c2c1C)C(=O)CC1(CCCC1)O3	1	-1	103	97
CC1Sc2ccc(C(=O)NCCc3ccccn3)cc2NC1=O (stereo unspecified)	-5	-22	102	110
COc1cccc(NC2C=CS(=O)(=O)C2)c1 (stereo unspecified)	0	/	101	106
Cc1occc1-c1nnc(SC2CCCCN(C(=O)c3ccc(F)cc3)C2=O)n1C (stereo unspecified)	-9	-9	101	110
O=C(CCCn1c(=O)oc2ccccc21)Oc1ccc(-c2nnco2)cc1	7	4	96	89
Cc1cc(C(=O)CSc2nnc(-c3cccc(F)c3)n2N)c(C)n1CC1CCCO1 (stereo unspecified)	3	-25	106	106
O=S(=O)(Nc1ccc(Cl)c(C(F)(F)F)c1)c1ccc(S(=O)(=O)N2CCOCC2)cc1	-5	-27	106	105
O=C(NC1CCCC1)c1ccc2c(c1)sc1nc(-c3ccccc3)cn12	-33	-5	103	107
CCC(=O)Nc1sc2c(c1C#N)CCC2	/	-7	108	111
O=C(CN1CCCN(S(=O)(=O)c2ccc(Br)s2)CC1)Nc1ccc(Cl)cc1	5	-11	101	100
CC(Sc1nnnn1C1CC1)C(=O)NC(c1ccccc1)c1ccccc1 (stereo unspecified)	-10	-7	103	109
O=C(NC(=O)N1CCCCC1)c1ccccc1	1	10	101	104
Cc1cccc(NC(=S)NN)c1	2	-20	101	104
O=C(Cc1ccccc1)N/N=C/c1cccs1	-16	-3	101	102
CN1CCN(c2ccccc2NC(=O)c2cccs2)CC1	7	5	100	103
Cn1cccc1/C=C1/C(=O)NC(=O)N(Cc2ccccc2)C1=O	-9	-86	102	103
CC1CCCN(Cc2nc3c(c(=O)n(C)c(=O)n3C)n2CC(N)=O)C1 (stereo unspecified)	-11	-29	104	102
O=C(O)C1C2C=CC(C2)C1C(=O)N1CCN(C2CCCCC2)CC1 (stereo unspecified)	9	-16	101	102
CCCn1nnnc1NC(=O)c1cccnc1Cl	6	9	101	103
Cc1nnc(NC(=O)c2ccccc2SCC(=O)NC2CCCCCCC2)o1	7	-48	105	106
COc1ccc(Cl)cc1S(=O)(=O)NC1CCCC1	-9	-5	100	100
Cn1c(C(=O)N2CCCCC2)cc2sccc21	6	-6	103	103
Cc1cc2c3c([nH]c2cc1S(=O)(=O)NCc1ccco1)CCCC3=O	-21	-12	101	103
Cc1ccc(NC(=S)NC2CC2)c(C)c1	-14	-1	102	104
C=CCNC(=O)CSc1ccc(C)cc1	-13	-3	101	104
Cc1ccc(OCCn2cnc3ccccc3c2=O)cc1	13	-11	104	94
CCN(CC)c1ccc(C(=O)N/N=C2\CC3CC=CC23)cc1 (stereo unspecified)	-24	7	101	96
Cc1cc(C)n(CCCNC(=O)CSc2ccc(S(=O)(=O)N(C)C3CCCCC3)cn2)n1	22	-17	99	102
NCC(O)C(O)C(O)c1cnn(-c2ccccc2)n1 (stereo unspecified)	30	5	103	110
O=C(/C=C(\O)c1ccc(Cl)cc1)C(F)(F)F	36	0	103	100
CC1=NN(c2ccc(Br)cc2)C(=O)/C1=C/c1ccc(-c2ccc3c(c2)C(=O)NC3=O)o1	-3	-10	104	109
Cc1cc2c(cc(C(=O)N3CCC(C(=O)N4CCCC4)CC3)n2Cc2c(F)cccc2Cl)o1	-2	-14	104	101

Compounds above containing a cyano group, in the order listed:
SMILES	Mtb MbtI inh	Mtb MenB inh	Polio RdRp inh	Polio RdRp inh intensity
CC1(C)C2CC=C(/C=C(\C#N)c3nc4ccccc4[nH]3)C1C2 (stereo unspecified)	-17	-16	118	157
CCCn1c(N)c(C(=O)CSc2nc3ccccc3n2CCC#N)c(=O)n(C)c1=O	0	-19	110	125
CC1=C(C#N)C(=O)N(CCc2ccccc2)C(=O)/C1=C\c1ccc(-c2cccc(Cl)c2)o1	6	7	103	102
CC(C)N1CCC2(CC1)C(C#N)=C(N)NC(S)=C2C#N	/	-20	124	149
CCC(=O)Nc1sc2c(c1C#N)CCC2	/	-7	108	111

Compound activity as filed in PubChem BioAssay.
